# Bioassay records from PubChem BioAssay.
# TRPV1 PAM – human TRPV1 potentiation | Q8NER1 | TRPV1-expressing cells, Fluo-8 calcium influx, capsaicin EC20 potentiation; host cell line not named in the record; control for the full effect not named in the record | potentiation, % at 8.33 µM | 0.02% of 320,000 active | AID 540277; active means potentiation above 80%; inconclusive means 30% to 80%; inactive means below 30%; note: 0% is about no effect
# Target sequence (Q8NER1 whole entry, looked up): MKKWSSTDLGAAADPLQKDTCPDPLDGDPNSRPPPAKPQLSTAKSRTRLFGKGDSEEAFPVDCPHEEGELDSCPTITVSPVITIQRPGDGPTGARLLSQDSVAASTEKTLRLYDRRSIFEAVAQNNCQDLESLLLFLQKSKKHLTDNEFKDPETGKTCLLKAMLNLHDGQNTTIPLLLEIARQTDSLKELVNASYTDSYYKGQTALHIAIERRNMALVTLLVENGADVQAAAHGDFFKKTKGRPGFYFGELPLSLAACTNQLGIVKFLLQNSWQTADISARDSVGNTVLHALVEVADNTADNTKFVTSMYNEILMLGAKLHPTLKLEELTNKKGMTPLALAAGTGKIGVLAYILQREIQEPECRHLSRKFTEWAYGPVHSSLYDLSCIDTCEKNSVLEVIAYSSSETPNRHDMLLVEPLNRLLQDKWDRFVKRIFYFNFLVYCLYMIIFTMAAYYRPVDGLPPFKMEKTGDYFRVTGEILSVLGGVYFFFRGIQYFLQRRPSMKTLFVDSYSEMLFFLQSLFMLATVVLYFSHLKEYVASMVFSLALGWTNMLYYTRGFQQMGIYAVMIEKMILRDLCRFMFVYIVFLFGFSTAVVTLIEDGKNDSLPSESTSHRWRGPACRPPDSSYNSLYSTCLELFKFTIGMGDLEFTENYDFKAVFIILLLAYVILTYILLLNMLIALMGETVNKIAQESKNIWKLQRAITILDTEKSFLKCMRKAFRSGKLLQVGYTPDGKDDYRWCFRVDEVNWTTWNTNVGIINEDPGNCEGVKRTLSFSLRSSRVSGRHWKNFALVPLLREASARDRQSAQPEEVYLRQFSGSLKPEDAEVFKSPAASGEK
#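 Cells expressing TRPV1 were dye-loaded with Fluo-8 and read kinetically: 10 s baseline, 3 min after compound (agonist portion), then 2 min after EC20 capsaicin (allosteric enhancer portion). Calcium-bound dye fluorescence at 480/520 nm.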
# Sfp PPTase inh – Sfp phosphopantetheinyl transferase inhibition; Q9F4F7; Biochemical Sfp PPTase activity, qHTS; Potency, µM, for the others: max response, negative = inhibition, usual class: inhibitors; 3.5% of 310,000 active; AID 1490; active = well fitted inhibition curve with a large enough effect; inconclusive = small, poorly fitted or top-dose-only effect, or another doubt; inactive = no such curve, though single readings can be large or run the other way;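 note: the enzyme is Sfp with the accession as filed and its product quenches rhodamine fluorescence; potency is the fitted concentration of half-maximal effect; 0% = enzyme reaction without inhibitor and -100% = no enzyme wells; top concentration of the series not given in the record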
#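 Sfp 15 nM + cpd, 15 min RT; start w/ rhodamine-CoA 5 uM, BHQ-2-YbbR 12.5 uM (final); 50 mM Hepes pH 7.6, 10 mM MgCl2, 0.01% NP-40, 0.01% BSA; read 525/598 nm at 0 and 30 min.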
# gsp ag – gsp mutant agonism; gsp mutant cells, cAMP HTRF, 30 min; control for the full effect not named in the record; Potency, µM (titrated, usually from 76.9 µM), for inactives: top-dose activation (cAMP increase), usual class: activators; 0.13% of 340,000 active; AID 624287; active = well fitted activation curve with a large enough effect; inconclusive = small, poorly fitted or top-dose-only effect, or another doubt; inactive = no such curve, though single readings can be large or run the other way; cell line not stated here;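 note: phosphodiesterase inhibitor Ro 20-1724 added with compounds to block cAMP breakdown; potency is the fitted concentration of half-maximal effect; nearly all actives have a fitted effect of over 60% in size; about a fifth of the inactives were tested at one dose only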
#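 Cells stably selected in G418 were plated at 2000/well, grown 16-24 hr, then given compounds in DMSO with the PDE inhibitor […] (300 uM solution added) for 30 min at 37C; cAMP was read by HTRF.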
# Menin MLL FP FL – inhibitors of human menin-MLL interaction, wild-type MLL peptide | FP activity change, % at 61.4 µM | 290,000 tested, under 10 active | Fluorescence polarization, fluorescein-MLL peptide displacement from menin; inconclusive = falling polarisation curve, or a change in total fluorescence; inactive = total fluorescence flat and polarisation flat or rising; no compound was filed as active; the % refers to the polarisation; negative = inhibition;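 note: % of control where 0% means no effect; inhibitors lower the polarisation; unlabelled MLL peptide was the positive control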
# CtBP-E1A inh – CtBP/E1A binding inhibition | AlphaScreen GST-E1A/His-CtBP binding, 1536-well; hits give low values; control for the full effect not named in the record | activity change, % (no concentration beside the values) | 0.49% of 340,000 active; in the data active means activity change below about -65%; inconclusive means about -30% to -65%; inactive means above about -30%; note: % is set by controls: 0 for no effect and ±100 for the full control effect; compound concentration not given in the record
#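 AlphaScreen with 125 nM GST-E1A and 125 nM His-CtBP (5X stocks) in Tris pH 8.0, 300 mM NaCl, BSA, Tween 20, TCEP. Compounds preincubated 2 h at 37 deg C, then glutathione donor/nickel acceptor beads added for 1 h at 37 deg C in dark.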
# ClpP mod – qHTS Assay for Activators of ClpP. ATP-dependent Clp protease proteolytic subunit (Bacillus subtilis (strain 168)), P80244. purified B. subtilis ClpP, FRET peptide cleavage, 20 min. Potency, µM (doses to about 57.5 µM), for inactives: at the highest dose activity change, negative = active. 1.9% of 340,000 active; active = well fitted falling curve with a large enough effect; inconclusive = small, poorly fitted or top-dose-only effect; inactive = no such curve, though single readings can be large or run the other way; note: potency is the fitted concentration of half-maximal effect; the source files actives as falling curves though it sought activators and does not explain the sign; nearly all actives have a fitted effect of over 65% in size; many hits overshoot -100%
# Target sequence (P80244 whole entry, looked up): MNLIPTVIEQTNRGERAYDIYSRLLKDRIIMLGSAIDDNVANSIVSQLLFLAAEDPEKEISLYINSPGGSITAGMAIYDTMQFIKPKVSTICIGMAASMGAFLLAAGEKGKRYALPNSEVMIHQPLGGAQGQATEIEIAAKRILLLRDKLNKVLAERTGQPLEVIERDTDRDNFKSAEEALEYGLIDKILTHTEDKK
#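 ClpP 10 microg/mL final, pH 8 Tris/KCl buffer with BSA, glycerol, Tween-20; compound pinned in; FRET-FV substrate; RT 20 min; Ex320/Em430; ΔFRET vs ADEP 5.8 microM, DMSO, no enzyme.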
# gsp antag – antagonists of gsp mutant (McCune-Albright syndrome); Potency, µM (doses to about 76.9 µM), inactives show at the highest dose activity change, negative = inhibition, hits mostly inhibitors; gsp-mutant cells, cAMP HTRF, 30 min; control for the full effect not named in the record; 0.4% of 340,000 active; active = falling curve of any shape with a large fitted effect; inconclusive = falling curve, mostly with a smaller effect; inactive = flat or rising curve; cell line not stated here;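 note: intracellular cAMP measured with PDE inhibitor Ro 20-1724 present during compound exposure; potency is the fitted concentration of half-maximal effect; % is set by controls: 0 for no effect and ±100 for the full control effect; nearly all actives have a fitted effect of over 65% in size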
#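 Cells, 2000/well, grown 16–24 h in DMEM 10% FBS with 0.5 mg/ml G418, then compounds plus […] (300 uM addition stock), 30 min at 37C. cAMP read by HTRF (cAMP-d2 and anti-cAMP antibody-K in lysis buffer) after 30 min RT.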
# Active calls of the source: *; ? = inconclusive; nt = not tested or not shown; [ ] = remark or other dose.
SMILES,TRPV1 PAM,Sfp PPTase inh,gsp ag,Menin MLL FP FL,CtBP-E1A inh,ClpP mod,gsp antag
CC1(C)C(=O)Nc2ccccc2N1C(=O)COc1ccc(C#N)cc1,nt,nt,-31%,nt,1,-0.3%,7%
COCCN(C(=O)COC(=O)CNC(=O)c1cccs1)c1c(N)n(Cc2ccccc2)c(=O)[nH]c1=O,22,nt,6%[15.4 µM],nt,-5,0.5%,-5%
CCN(C(=O)CN1C(=O)/C(=C/c2ccccc2)SC1=S)C1CCS(=O)(=O)C1 (stereo not given),1,2%,-69%[inhibitor],3.3,1,0.1%,-12%
Cc1cc(S(=O)(=O)c2cc3ccc(O)c(C)c3oc2=O)ccc1F,-15,0%,?,?,18,3.3%,?
O=C(NNc1nc2c(F)cc(F)cc2s1)c1ccccc1,4,23%,17%,1.7,-5,-3.0%,2%
CCc1cc(Cn2nc(-c3ccccc3)cc2C(=O)NCCOC)on1,-14,nt,-23%,nt,0,-0.4%,2%
Cn1c(=O)c(C(=O)COC(=O)c2cc(-c3ccco3)nc3ccccc23)c(N)n(CC2CC2)c1=O,19,22µM*,nt,?,nt,nt,nt
C/C(N)=C(/C#N)C(=O)CSc1nncn1-c1ccccc1,2,18%,-7%[15.4 µM],-3.8,7,nt,0%
CC(C)n1c(NCCO)nc2ccccc21,9,8%,4%[15.4 µM],-0.4,13,nt,-1%
Cc1ccc(CNC(=O)CCCc2ccccc2)cc1,-15,7%,8%[15.4 µM],0.1,2,nt,-22%
O=C(NCc1ccccc1Cl)C1CCN(S(=O)(=O)c2ccc(F)cc2)CC1,-4,21%,8%,-0.6,3,nt,-9%
C=CCN1C(=O)C(C)NC1=S (stereo not given),8,?,-2%[15.4 µM],6.5,-9,nt,2%
CCC1(C)Cc2nc3[nH]c(=S)n(-c4ccc(C)cc4)c(=O)c3cc2CO1 (stereo not given),10,16%,7%,0.3,4,1.0%,2%
CCCOC(=O)c1ccc(OCC(O)CN2C(=O)NC(C)(C)C2=O)cc1 (stereo not given),4,17%,-8%,-0.6,-1,-0.2%,2%
COc1ccc(S(=O)(=O)N2CCCC(C(=O)NCCC3=CCCCC3)C2)cc1 (stereo not given),3,9%,-5%,1.3,-3,-0.6%,-3%
Cc1c(NC(=O)C(C)OC(=O)c2sc3ccccc3c2Cl)c(=O)n(-c2ccccc2)n1C (stereo not given),7,1%,?,0.4,10,-18%,6%
COc1ccc(S(=O)(=O)N2CC3C4C=CC(C4)C3C2)cc1 (stereo not given),nt,-5%,15%,5.3,7,-1.8%,-2%
COc1ccc2[nH]cc(C(O)CN3CCN(c4ccccc4F)CC3)c2c1 (stereo not given),nt,-16%,-2%[15.4 µM],8.0,-8,nt,1%
Cc1ccccc1-n1c(SCC(=O)c2c(N)n(C3CC3)c(=O)[nH]c2=O)nnc1N1CCOCC1,5,nt,-33%[inhibitor],nt,nt,-4.0%,8%
Cc1ccc(S(=O)(=O)N2CCN(C(=S)NCC3CCCO3)CC2)cc1 (stereo not given),?,nt,-3%,nt,1,-2.1%,0%
Cc1ccccc1N1C(=O)c2sc3nc4c(c(=O)n3c2C1=O)CCC4,-6,22µM*,6%,5.8,-15,-3.3%,0%
O=C(CCC1COc2ccccc2O1)NCc1ccco1 (stereo not given),4,-12%,-16%,1.5,2,-2.3%,7%
Cc1cc(C)cc(C(=O)Nc2cc3c4c(c2)CC(=O)N4CCC3)c1,-16,nt,7%,nt,3,0.9%,0%
COC(=O)C1CN(C(=O)C(C)Oc2ccccc2F)c2ccccc2O1 (stereo not given),1,17%,-46%[inhibitor],-13,4,-0.4%,0%
CCC(=O)c1ccc(Oc2nc3c(c(=O)n(C)c(=O)n3C)n2CC)cc1,4,15%,31%,-7.8,-1,nt,-3%
O=C(C[C@H]1C/C=C/CC[C@H](Cc2ccc(F)cc2)C(=O)O[C@H](c2ccccc2)CNC1=O)NCCO,nt,nt,nt,nt,1,0.2%,3%
COn1c(=O)c(=O)n(O)c2ccccc21,21,-29%,-1%,-2.0,10,-0.3%,-5%
CCOC(=O)C(Cc1ccnnc1)=NO,nt,nt,36%,nt,-1,nt,10%
Cc1cn(CCC(=O)Nc2ccc(N3CCOCC3)cc2)c2ccccc12,-6,-3%,11%,-0.8,nt,-8.9%,-11%
COC(=O)CNC(=O)CSc1ccccn1,?,7%,1%,1.0,4,-1.6%,7%

# 6 of the entries above in order of the gsp ag value, highest first.
SMILES	gsp ag
CCC(=O)c1ccc(Oc2nc3c(c(=O)n(C)c(=O)n3C)n2CC)cc1	31%
Cc1cn(CCC(=O)Nc2ccc(N3CCOCC3)cc2)c2ccccc12	11%
Cc1cc(C)cc(C(=O)Nc2cc3c4c(c2)CC(=O)N4CCC3)c1	7%
COC(=O)CNC(=O)CSc1ccccn1	1%
COn1c(=O)c(=O)n(O)c2ccccc21	-1%
O=C(CCC1COc2ccccc2O1)NCc1ccco1 (stereo not given)	-16%

# Next section
SMILES,TRPV1 PAM,Sfp PPTase inh,gsp ag,Menin MLL FP FL,CtBP-E1A inh,ClpP mod,gsp antag
O=C(CN1C2CCCC1CC(NC(=O)c1ccccc1)C2)NC1CC1 (stereo not given),-2,15%,-22%,0.1,8,0.0%,-4%
CCOc1ccc2c(c1)OC(c1ccc(OC)cc1)(C(F)(F)F)NC2=O (stereo not given),-5,-17%,42%,1.5,0,4.1%,9%
C[C@H](NC(=O)[C@H](Cc1ccccc1)NC(=O)c1cc2cc(Cl)ccc2n1C)C(=O)O,3,28%,?,?,3,-25%,7%
Cc1noc(C)c1COc1cccc(C(=O)OCC(=O)N2CC(=O)Nc3ccccc32)c1,-4,-8%,7%,5.9,4,0.2%,15%
CSCCC(NC(=O)c1ccccc1Br)C(=O)NCc1ccc(F)cc1 (stereo not given),-4,8%,?,9.4,-3,1.4%,6%
CC1CC(C)CN(CCCNC(=O)CCNC(=O)Cn2ccc3ccccc3c2=O)C1 (stereo not given),-7,7%,-53%[inhibitor],2.4,-2,-29%,8%
COCCCNC(=O)c1ccc2c(=O)n(C3CCCC3)c(=S)[nH]c2c1,2,1%,-24%,3.6,-1,-1.5%,-9%
Cc1ccc(C(=O)NCC(=O)OCc2nnc(-c3ccc([N+](=O)[O-])cc3)o2)cc1,nt,nt,13%,nt,0,0.5%,nt
Cc1cc(-c2ccccc2)[nH]c(=O)c1C#N,7,19%,7%[15.4 µM],-1.9,-20,nt,-16%
O=C(CCn1nnc2ccccc21)Nc1nnc(Cc2ccc(F)cc2)s1,-2,7%,0%,8.2,-9,-3.6%,-11%

# Entries of single compounds from above. Screens in order: TRPV1 PAM, Sfp PPTase inh, gsp ag, Menin MLL FP FL, CtBP-E1A inh, ClpP mod, gsp antag
# Shown for `Cc1cn(CCC(=O)Nc2ccc(N3CCOCC3)cc2)c2ccccc12` → -6, -3%, 11%, -0.8, nt, -8.9%, -11%
# Shown for `COn1c(=O)c(=O)n(O)c2ccccc21` → 21, -29%, -1%, -2.0, 10, -0.3%, -5%

# Next section.
SMILES,TRPV1 PAM,Sfp PPTase inh,gsp ag,Menin MLL FP FL,CtBP-E1A inh,ClpP mod,gsp antag
O=C(NCC1CCCO1)C(C(=O)c1ccc(F)cc1)n1ccccc1=O (stereo not given),-2,-12%,-14%,-2.7,-13,-2.3%,-3%
O=C(OCC1CCC=CO1)C1CCC=CO1 (stereo not given),nt,nt,2%[15.4 µM],nt,138,-1.6%,1%
O=C(C1CCCCN1S(=O)(=O)c1ccccc1[N+](=O)[O-])N1CCCCC1 (stereo not given),-1,17%,-6%,4.0,-20,-3.4%,-4%
COc1cccc(C(=O)N2CCN(C(=O)C3CCCO3)CC2)c1 (stereo not given),-43,nt,0%,nt,8,0.5%,10%
Cc1cccc(S(=O)(=O)Nc2ccc(C)c3c2OC(C)(C)C3)c1,23,?,-7%,-1.3,4,-1.2%,2%
NC(=O)c1ccc(Nc2ccc([N+](=O)[O-])cc2[N+](=O)[O-])cc1,3,7%,7%,0.6,-22,nt,-7%
CCOc1ccc(S(=O)(=O)NCCC(=O)NC(C)CCc2ccccc2)cc1 (stereo not given),18,nt,-15%,nt,-4,-2.8%,-8%
COC(=O)CSc1ncnc2c1sc1nc(-c3ccco3)c3c(c12)CC(C)(C)OC3,19,11µM*,nt,34[activator],nt,nt,nt
Cc1cccc(CSC(=N)N)c1,9,10%,-25%,1.3,16,13µM*,9%
Cc1ccc(C(=O)c2ccc([N+](=O)[O-])cc2)cc1C,-12,-10%,-43%[inhibitor],-1.8,9,0.1%,-25%
CCOc1ccc(NC(=O)CSc2ncn[nH]2)c([N+](=O)[O-])c1,7,8%,-23%,5.5,-19,0.9%,-2%
O=C(Nc1ccc(S(=O)(=O)NC2=NCCCCC2)cc1)c1ccc(=O)[nH]c1,-1,10%,-41%[inhibitor],1.2,3,0.6%,-13%
CC1CCCC(NC(=O)c2nn(C)c3c2CS(=O)(=O)c2ccccc2-3)C1C (stereo not given),6,-8%,-59%[inhibitor],-1.3,nt,-8.0%,-11%
COc1ccc(Cl)cc1S(=O)(=O)n1c([N+](=O)[O-])cnc1C,20,71µM*,-34%[inhibitor],5.6,nt,-0.4%,3%
COc1cc2c(cc1OC)CN(CCOc1ccc(Br)cc1)CC2,4,-4%,-4%,-2.4,nt,-3.5%,0%
Cc1ccccc1OCC(=O)NCC(c1ccco1)N1CCCCC1 (stereo not given),-18,3%,5%,-2.7,-2,-1.6%,2%
O=C(/C=C/c1cccc(F)c1)NNC(=O)c1ccncc1,-33,nt,19%,nt,4,5.3%,4%
Cc1nc(SCC(=O)Nc2cc(C)on2)c2c(C)c(C)sc2n1,10,10%,24%,0.7,27,0.5%,14%
CC(C)(C)C(=O)Nc1ccc(S(=O)(=O)NC2=NCCCCC2)cc1,0,nt,10%,nt,0,-2.5%,10%
CC(=O)Nc1ccc(NC(=O)CNC(=O)c2sc3ccccc3c2Cl)cc1,1,nt,14%[15.4 µM],nt,0,nt,0%
